TRPML1 ag = activates the human TRPML1 channel | Q9GZU1 | TRPML1-expressing cells, Ca2+ dye fluorescence, FDSS; host cell line not named in the record; reference of the full effect not given here | activation, % (concentration not given with the values) | 410,000 tested, 0.12% active | AID 624414; in the data active = activation above about 50%; inconclusive = about 30% to 50%; inactive = below about 30%; further: 0% is about no effect; the text of the record puts the active cut at 80%
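Cells: TRPML1-DL, 1X Tet inducer, ~16 h at 37 degrees C/5% CO2. Dye: ABD Ca8 no-wash + quencher, 45-90 min RT. Read: 10 s baseline, compound add, 110 s agonist phase; 54-4 EC80 (4uM final), 110 s antagonist phase.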
CtBP-E1A blk = blocks the CtBP interaction with E1A; AlphaScreen GST-E1A/His-CtBP binding, 1536-well; active compounds read low; control for the full effect not named in the record; activity change, % (test concentration not listed); 340,000 tested, 0.49% active; in the data active means activity change below about -65%; inconclusive means about -30% to -65%; inactive means above about -30%; further: on the % scale 0 is the no-effect control and ±100 the full control effect
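AlphaScreen with 125 nM GST-E1A and 125 nM His-CtBP (5X stocks) in Tris pH 8.0, 300 mM NaCl, BSA, Tween 20, TCEP. Compounds preincubated 2 h at 37 deg C, then glutathione donor/nickel acceptor beads added for 1 h at 37 deg C in dark.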
D2 PAM = human D2 receptor positive allosteric modulation; P14416; DiscoveRx D2 beta-arrestin cells, luminescence, 90 min; 100% = 57 uM dopamine signal; potentiation, % (test concentration not listed); 360,000 tested, 0.23% active; AID 624464; active = potentiation of 50% or more; inconclusive = 30% to 50%; inactive = 30% or less;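 further: compound concentration not given in the record; tested on top of an EC20 dose of dopamine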
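D2 cells co-treated with compound plus 50 nM dopamine (EC20) for 90 min at 37 deg C to detect potentiation. Beta-arrestin recruitment was read as enzyme-fragment luminescence after 1 h at ambient temperature. Full response was set by 57 uM dopamine.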
Six1-Eya2 blk = Six1/Eya2 interaction inhibition; activity change, % (test concentration not listed); Q15475+O00167; AlphaScreen GST-Six1/His-Eya2 binding, biochemical; active compounds read low; control for the full effect not named in the record; 360,000 tested, 0.56% active; in the data active = activity change below about -65%; inconclusive = about -30% to -65%; inactive = above about -30%; further: on the % scale 0 is the no-effect control and ±100 the full control effect
Target sequence (O00167 whole entry, looked up): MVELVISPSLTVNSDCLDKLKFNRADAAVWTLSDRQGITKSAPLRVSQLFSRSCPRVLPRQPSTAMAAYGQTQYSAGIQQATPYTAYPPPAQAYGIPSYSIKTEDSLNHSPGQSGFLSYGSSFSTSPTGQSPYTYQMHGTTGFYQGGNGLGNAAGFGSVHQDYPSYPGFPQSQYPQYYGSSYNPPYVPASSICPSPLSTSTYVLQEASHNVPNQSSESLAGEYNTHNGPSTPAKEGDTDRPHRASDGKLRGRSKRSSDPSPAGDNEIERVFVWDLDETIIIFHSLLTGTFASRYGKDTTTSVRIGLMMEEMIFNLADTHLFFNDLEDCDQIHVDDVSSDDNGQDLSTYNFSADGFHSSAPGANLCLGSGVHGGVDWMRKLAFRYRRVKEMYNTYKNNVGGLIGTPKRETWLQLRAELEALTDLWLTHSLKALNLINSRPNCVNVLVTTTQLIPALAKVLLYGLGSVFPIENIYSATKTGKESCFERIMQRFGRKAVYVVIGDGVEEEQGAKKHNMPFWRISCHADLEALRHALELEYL
Target sequence (Q15475 whole entry, looked up): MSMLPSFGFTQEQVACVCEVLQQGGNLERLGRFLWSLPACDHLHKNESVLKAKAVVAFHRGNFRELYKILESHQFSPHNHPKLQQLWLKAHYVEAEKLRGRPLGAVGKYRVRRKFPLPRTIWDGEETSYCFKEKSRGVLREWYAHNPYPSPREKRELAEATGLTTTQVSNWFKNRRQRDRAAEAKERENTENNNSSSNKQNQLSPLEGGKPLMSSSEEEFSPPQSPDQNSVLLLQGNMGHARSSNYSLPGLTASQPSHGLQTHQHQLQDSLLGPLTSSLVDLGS
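AlphaScreen with GST-Six1 and His-Eya2 (5X mix: 250 nM and 500 nM), glutathione donor and nickel acceptor beads; buffer 50 mM Tris pH 8.0, 300 mM NaCl, 1 mM TCEP; 1 h at 37 C in the dark.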
PINK1 expr mod = modulators of PINK1 expression | PINK1 immunofluorescence, high-content cytometry, 24 h | AID 624263 | 410,000 tested, 0.2% active | Potency, µM (top dose mostly 76.6 µM), for the others: at the highest dose activation (PINK1 increase), most hits filed as activators; active = well fitted activation curve with a large enough effect; inconclusive = small, poorly fitted or top-dose-only effect; inactive = flat fitted curve, though single readings scatter; cell line not stated here;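 further: potency means the concentration at half of the fitted maximal effect; % of control where 0% means no effect; nearly all actives have a fitted effect of over 65% in size; a mitochondrial uncoupler was the plate control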
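Stable cell line treated 24 h with compounds at 5 concentrations (CCCP controls), then fixed and immunostained for PINK1 plus nuclear and cell stains; PINK1 immunofluorescence quantified by laser-scanning microplate cytometry.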
D2 ag = human D2 receptor agonism in beta-arrestin assay; DiscoveRx PathHunter D2 beta-arrestin, luminescence, 90 min; 100% = 57 uM dopamine signal; activation, % (concentration not given with the values); 360,000 tested, 0.084% active; AID 624465; in the data active = activation above about 40%; inconclusive = about 15% to 40%; inactive = below about 15%; further: compound concentration not given in the record; the text of the record calls up to 30% inactive
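Agonist mode: compounds alone added to overnight-plated D2 PathHunter cells for 90 min at 37 C, with 57 uM final dopamine (EC100) defining full response. Beta-arrestin recruitment detected by chemiluminescent reagent, read after 1 h at ambient temperature.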
* = called active by the depositor; ? = inconclusive; · = not tested or not shown; & = joins results of further samples; [ ] = remark or other dose.

SMILES	TRPML1 ag	CtBP-E1A blk	D2 PAM	Six1-Eya2 blk	PINK1 expr mod	D2 ag
COCCCNC(=O)C1CCN(S(=O)(=O)N(CC(C)C)CC(C)C)CC1	0.4	-7	-19	6	18%[38.3 µM]	-3.5
Cc1cc2nnc(SCc3ccc4c(c3)OCO4)n2c2ccccc12	1.0	5	-3	10	1.4%	-0.8
CCNC(=S)NCCN1CCOCC1	-0.3	8	6	0	5.0%	-4.4
COC(=O)CC[C@@H](C(=O)O)N1C(=O)c2ccccc2C1=O	-0.1	6	7	5	0.1%	-3.4
O=C(CC(=O)c1ccccc1)CS(=O)(=O)c1ccccc1	6.3	-2	2	-3	-1.1%	1.0
CC(=O)c1ccc(NC(=O)Cn2cnc(S(=O)(=O)N3CCCCC3)c2)cc1	0.6	-15	-12	2	-0.3%	-3.1
CC(C)NC(=O)C1(C)Cc2c(-c3ccc(C(N)=O)cc3)ccnc2O1 (stereo not drawn)	-0.2	6	-3	2	-0.9%	-0.7
CCCCCCCCOC(=O)c1c(CSC(=N)N)n(C)c2cc(Br)c(OC(C)=O)cc12	0.2	·	-11	0	-1.1%	3.8
O=S(=O)(c1ccc(F)cc1)N(CCO)CC(O)Cn1c2ccccc2c2ccccc21 (stereo not drawn)	0.1	-15	-4	-3	0.3%[38.3 µM]	1.9
COc1ccc(NC(=O)CCS(=O)(=O)c2ccc3c(c2)oc(=O)n3C)cc1OC	0.0&-0.8	2	-9	9	-0.4%&0.6%	-0.2
COc1ccc(C(=O)CCN2CCN(c3ccccc3OC)CC2)cc1	-0.1	0	-15	-3	0.3%	-3.1
COc1ccc(C2=NS(=O)(=O)N(C)C(C(=O)NC(C)c3ccccc3)=C2)cc1OC (stereo not drawn)	-0.2&0.6	2	-3	2	1.4%&-0.5%	-5.0
CC1CCN(CCC(=O)Nc2nccs2)CC1	0.5	14	-3	-2	-1.1%	-5.0
CCc1sc(NS(C)(=O)=O)nc1-c1ccccc1	-0.4	0	-4	1	-4.0%[38.3 µM]	1.5
COCc1nc2sc3c(c2c(=O)[nH]1)CCCC3	0.7	5	-20	-4	-1.0%	-7.2
Cc1nnsc1C(=O)NCc1c(F)cccc1Cl	0.6	-21	-2	-5	3.1%	0.0
Cc1cc(C)cc(NS(=O)(=O)c2cc(Br)cnc2N)c1	2.4	-1	3	2	4.7%	1.5
CC(C)C(=O)Nc1nc(-c2ccc(S(=O)(=O)N3CCOCC3)cc2)cs1	0.3	-6	14	4	1.5%	-3.1
O=C(COC(=O)/C=C/c1ccc(OC(F)F)cc1)NC(=O)NC1CCCCC1	2.9	9	-3	-8	0.9%	-0.8
CCN(Cc1cnn(C)c1)Cc1nc(C(c2ccccc2)c2ccccc2)no1	0.9	-3	-12	1	0.1%	-4.5
Cc1ccc2c(c1)C(=O)CC1(CCCCCC1)O2	0.4	·	-8	12	4.8%	-4.0
COc1ccc(CC(=O)OCC(=O)Nc2cc(Cl)ccc2C)cc1	-0.3	3	-9	0	1.7%	-6.1
Cc1cc(C)cc(NC(=O)c2ccccc2NC(=O)CCC(=O)O)c1	-0.5	10	-8	9	-2.8%	-3.7
O=C(NCc1ccccc1)C(c1ccccn1)N(C(=O)c1csnn1)c1ccccc1F (stereo not drawn)	0.3	11	-3	-4	1.4%	-0.6
CCOCC(=O)Nc1ccc(C)c(Cl)c1	0.6	6	-5	8	-0.7%	-2.8
CCOC(=O)Cc1csc(NC(=O)CSc2nc(-c3ccccc3)c(C#N)c(=O)[nH]2)n1	-0.9	1	14	-1	-1.2%	6.8
COc1ccc(S(=O)(=O)N2CCC(n3cnc4cc(C(F)(F)F)ccc43)CC2)cc1	0.4	-5	0	0	0.0%	1.0
CC(=O)Nc1ccc(NC(=O)Cn2nc(C(=O)Nc3ccc(C)cc3)ccc2=O)cc1	-0.5&1.0	1	-6	0	0.0%&-0.1%	-0.5
O=C(COc1ccccc1)Nc1ccccc1NS(=O)(=O)c1cccs1	-0.6	2	-7	-2	0.0%	-0.3
CS(=O)(=O)NC1c2cccc3cccc(c23)C1Sc1nncn1/N=C/c1ccco1 (stereo not drawn)	0.5	4	-4	0	-0.4%	-1.8
CCOC(=O)c1c(CSCc2ccccc2)oc2ccc(O)c(CN(C)C)c12	-0.3	-12	-5	-15	-1.0%	-7.7
COCCN1C(=O)C(CC(=O)Nc2ccc(C(C)=O)cc2)SC1=Nc1ccccc1 (stereo not drawn)	-0.4&1.3	0&5	-6&5	-5&1	1.8%&0.8%	-8.9&0.7
CS(=O)(=O)N1CCC(C(=O)Nc2ccc3c(c2)OCO3)CC1	0.5	3	2	5	4.2%[38.3 µM]	-1.0
Cc1noc(C)c1S(=O)(=O)Nc1ccc2c(c1)C(=O)N([C@H](C)CO)C[C@H](C)[C@@H](CN(C)C(=O)NC1CCCCC1)O2	-0.2	-3	-2	1	0.1%	0.6
C=CCOC(=O)C1=C[C@H](c2cn(C(C)=O)c3ccccc23)C[C@H](OCc2ccc(CO)cc2)O1	0.2	-6	-5	-1	0.0%	2.7
O=C(NCCN1CCOCC1)C1CCC(=O)N1Cc1ccc(F)cc1 (stereo not drawn)	2.6	6	-7	5	-1.0%[38.3 µM]	-1.7

Sorted by the number under CtBP-E1A blk (high to low): some entries from above.
SMILES	CtBP-E1A blk	D2 PAM	Six1-Eya2 blk	PINK1 expr mod	D2 ag
CC(=O)Nc1ccc(NC(=O)Cn2nc(C(=O)Nc3ccc(C)cc3)ccc2=O)cc1	1	-6	0	0.0%&-0.1%	-0.5
Cc1noc(C)c1S(=O)(=O)Nc1ccc2c(c1)C(=O)N([C@H](C)CO)C[C@H](C)[C@@H](CN(C)C(=O)NC1CCCCC1)O2	-3	-2	1	0.1%	0.6
COc1ccc(S(=O)(=O)N2CCC(n3cnc4cc(C(F)(F)F)ccc43)CC2)cc1	-5	0	0	0.0%	1.0

More entries follow:
SMILES	TRPML1 ag	CtBP-E1A blk	D2 PAM	Six1-Eya2 blk	PINK1 expr mod	D2 ag
O=C(Nc1cccc2cccnc12)c1ccc2sc([C@@H]3O[C@H](CO)[C@H](O)[C@H](O)[C@H]3O)nc2c1	-0.9	-5	-3	1	-0.7%	-5.4
Cc1ccc(-c2onc(C)c2C)cc1S(=O)(=O)N1CC(C)Oc2ccccc21 (stereo not drawn)	1.0	2	3	-1	1.0%	-0.9
CCOc1cc(-c2n[nH]c(=S)n2Cc2ccccc2)ccc1OC(F)F	0.2	·	1	-11	7.7%	-1.3
CCN(CC)C(=O)CSc1nnc(CSc2ncccn2)n1C	·	7	-6	2	1.7%	-3.0
COc1ccc(Cl)cc1C(=O)Nc1ccc(N(C)C(C)=O)cc1	-1.1	7	6	-2	0.3%	-3.0
O=C1/C(=C/c2ccc([N+](=O)[O-])cc2)C=C(c2ccccc2)N1c1ccc(O)cc1	-0.4	-10	4	-4	-7.8%[38.3 µM]	0.6
O=C(NCc1ccccn1)C1CCN(S(=O)(=O)N2CCC3(CC2)OCCO3)CC1	0.3	-5	4	-4	0.2%	0.4
Cc1cccc(OCc2nnc(SCC(=O)N(c3ccccc3)C3CCS(=O)(=O)C3)o2)c1 (stereo not drawn)	0.0	-2	-5	0	-1.4%	9.6
CCN(CC(=O)Nc1ccccc1OC)C(=O)c1ccc(NS(=O)(=O)c2ccc(C(C)=O)cc2)cc1	0.3	1	-6	-5	-0.5%	-7.0
COC(=O)c1[nH]c2ccc(C)cc2c1NC(=O)CN1CCN(c2ccccc2)CC1	1.9	-6	-17	-23	-3.7%	6.6
O=C1NC[C@H](CCCCN2C[C@H](Cc3ccc(O)cc3)N(Cc3ccccc3)C(=O)C2=O)N(CC2CCCCC2)C1=O	-0.6	-7	·	3	2.4%	·
COCCN1CSC(=S)N(Cc2ccco2)C1	0.3	-5	-9	-1	6.3%[38.3 µM]	-0.8
CS(=O)(=O)Nc1ccccc1C(=O)Nc1cc(Cl)cc(Cl)c1	0.6	2	-6	-1	?	-2.1
COc1ccc(CC(=O)Nc2ccc(S(=O)(=O)Nc3cc(OC)nc(OC)n3)cc2)cc1	-0.2	-17	-5	-19	-0.9%	3.1
CS(=O)(=O)Nc1ccccc1C(=O)N1CCOCC1	1.2	3	3	9	-0.8%	-1.4
COc1ccc(CC2(CO)CCN(Cc3ccc4c(c3)CCO4)CC2)cc1	0.1	-14	-9	-16	-1.8%	-2.4
COCCNC(=O)C(c1c[nH]c2ccccc12)N(C(=O)c1snc(C(N)=O)c1N)c1cccc(OC)c1 (stereo not drawn)	0.2	·	1	-6	-2.5%	1.2
Cc1nc(-c2ccccc2)cc(=O)[nH]1	0.2	-2	-6	3	-1.2%	-3.6
C[C@H](NC(=O)c1nc[nH]c1C(=O)NCCCCCNC(=O)OC(C)(C)C)c1ccccc1	0.7	2	6	-1	1.8%	4.4
Cc1ccccc1C(=O)Nc1ccc(Cl)cn1	-0.7	5	-2	10	4.1%	-1.8
CSc1ccc(CN2CCC(N3CCC(C(=O)NC4CC4)CC3)CC2)cc1	-0.3	-19	-10	-2	0.3%	0.7
CC1(C)N=C(N)N=C(N)N1CCCCc1ccccc1	0.7	2	-22	3	-0.8%	-0.8
CCN(CC)CCCNC(=O)c1ccc(S(=O)(=O)Nc2ccc(C)c(C)c2)cc1	1.0	0	-20	2	1.8%	-1.1
CC1CCN(S(=O)(=O)c2c[nH]c(=O)[nH]c2=O)CC1	0.7	8	-10	70	-1.8%	-6.0
Cc1noc(NS(=O)(=O)c2ccc(NC(=O)c3cccc(S(=O)(=O)N(C)c4ccccc4)c3)cc2)c1C	0.7	-8	0	-1	4.7%	-0.7
CN(C)[C@H]1CCN([C@@H]2CS(=O)(=O)N[C@H]2COCc2ccccc2)C1	0.0	3	-2	-2	2.7%	-0.9
Cc1ccc(SCC(=O)Nc2oc(C)c3c(C)n[nH]c(=O)c23)cc1C	-1.5	·	2	-9	2.6%	-1.7
CC(C)C(NS(=O)(=O)c1cccc2nsnc12)C(=O)Nc1nc2ccc(Cl)cc2s1 (stereo not drawn)	0.2	4	-1	-18	12%	1.7
CCOC(=O)Nc1ccc2c(c1)ncn2C1CCCCC1	0.5	-7	10	-7	·	0.9
COc1ccc(-c2ccc(C(=O)NCCN3CCOCC3)c3occc23)c(C)c1	0.3	-26	-15	-26	3.9%	-0.6
CCN1CCN(C(=S)Nc2ccc3nc(N4CCN(C)CC4)cc(C)c3c2)CC1	-0.2	-7	-38	-4	6.6%	-6.8
CN(CC(=O)Nc1ccccc1C(F)(F)F)C(=O)CSCc1ccccc1	0.9	-1	6	4	0.7%	0.4
O=C(COC(=O)c1cc(Br)ccc1O)Nc1ccc2c(c1)OCO2	-1.5	·	-9	-8	2.7%	-0.8
COCCC(=O)N1CCC(Oc2ccc(C(=O)NCCc3cnn(C)c3)cc2)CC1	0.9	-7	-6	0	-1.5%	-4.9
COC(=O)c1ccc(S(=O)(=O)NNC(=O)c2ccc(S(=O)(=O)N3CCCCC3)cc2)cc1	0.5	-1	-13	6	2.3%	-2.6

High-throughput results (PubChem BioAssay)
